# Source: PubChem BioAssay
# NPYLR7 ag: agonists of mosquito NPYLR7 receptor, primary screen, cell-based, Aedes aegypti, calcium fluorescence, mosquito biting behavior; 270,000 compounds, 0.15% hits; HEK293T NPYLR7/Galpha15, GCaMP6s calcium fluorescence; activation, % at 10 µM; Aedes aegypti neuropeptide Y-like receptor 7 (NPYLR7); in the data active means activation above about 40%;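 further: 0% = vehicle and 100% = reference agonist at the receptor; some compounds past the cut are filed as inactive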
# NPYLR7 ag max-min: also measured in NPYLR7 ag; calls as there; activation, %; measured here: Max-Min RFU normalised activation; some inactives read as strong as hits;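 span of the calcium signal over five minutes; 0% = vehicle and 100% = native peptide agonist; compound fluorescence can raise it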
# An asterisk follows results filed as active; & = joins results of further samples.
Molecule	NPYLR7 ag	NPYLR7 ag max-min
Cc1nc2c(c(N3CCCC(c4nc(CC(C)C)no4)C3)n1)CNC2 (stereo unspecified)	-1.7	-2.5
CN1CCN(c2cccc(-c3cc(C(F)(F)F)cc(C(F)(F)F)c3)n2)CC1	-5.5	-10.3
CC(=NNC(=O)CC#N)c1ccc([N+](=O)[O-])cc1	-1.8	-6.0
CCOC(=O)c1nn(-c2ccccc2Cl)c(=O)cc1OS(=O)(=O)c1cc(C)c(C)cc1OC	10.5	5.4
COc1ccc(CC(=O)N2[C@@H](c3ccccc3)[C@@H](CO)C[C@]23CCCCNC3=O)cc1	1.2	2.9
Cn1c(C(=O)N2CCCC(C(=O)NC3CC3)C2)cc2sccc21 (stereo unspecified)	5.6	5.1
COc1ccc(-c2cc(NCc3ccc(C)c(Cl)c3)n3ncnc3n2)cc1	21.2	5.8
Cc1n[nH]c(=O)nc1NCc1ccco1	1.2	4.0
Cc1ccc(C2c3cccn3CCN2C(=O)NCc2ccccc2)cc1 (stereo unspecified)	10.5	4.4
O=C(COc1ccccc1-c1nc2ccccc2o1)Nc1cccc(Cl)c1	21.4	31.6

# Full records as entered above:
# COc1ccc(-c2cc(NCc3ccc(C)c(Cl)c3)n3ncnc3n2)cc1 reads NPYLR7 ag: 21.2; NPYLR7 ag max-min: 5.8
# CC(=NNC(=O)CC#N)c1ccc([N+](=O)[O-])cc1 reads NPYLR7 ag: -1.8; NPYLR7 ag max-min: -6.0

# The results go on.
Molecule	NPYLR7 ag	NPYLR7 ag max-min
CN(Cc1cccc2cnccc12)C(=O)c1ncc[nH]1	-7.4	-9.3
COC(=O)c1c(C)c(C(=O)C(C)N(Cc2ccc(F)cc2)C(=O)C2C[C@H]2c2ccccc2)c(C)n1C (stereo partly specified)	-13.0	-10.4
Cc1nc(-c2ccccc2)n(CC(=O)NNc2ccccn2)c1C	6.3	-2.5
CC1CCC(=NNc2ccc(S(=O)(=O)N3CCCCC3)cn2)CC1 (stereo unspecified)	-2.7	-6.6
CC(C)c1nnc(C2CCN(C(=O)NCCCc3ccccc3)CC2)o1	-17.0	-21.3
Cc1nnnn1-c1ccc(CC(=O)N2[C@H]3CCNC[C@@H]2CC3)cc1	-3.9	-3.7
CCC(Cn1ccnc1)NC(=O)Cc1c(C)[nH]c2c(C)ccc(C)c12 (stereo unspecified)	17.2	10.7
O=C(c1cc(Cl)c(Cl)[nH]1)N1CCC(O)(C(F)(F)F)C1 (stereo unspecified)	-0.6	-1.7
CCCCCCc1ccc(C(=O)Nc2ccc(N3CCCC3)c(C(=O)NC(C)c3ccccc3)c2)cc1 (stereo unspecified)	-5.0	-2.4
O=C(/C=C/c1ccccc1Cl)N1CCN(CCCOC(c2ccc(Cl)cc2)c2ccc(Cl)cc2)CC1	5.4	5.3
COC(=O)C1C2CCC(C2)C1NS(=O)(=O)CC1CCCCO1 (stereo unspecified)	-12.6	-17.8
C#CCOC(=O)/C(=C/c1ccc(C)cc1)NC(=O)c1ccccc1	-1.2	0.3
CCc1ccccc1NC(=O)CN(C)C(=O)c1nn(-c2cccc(C(F)(F)F)c2)c(C)cc1=O	-3.6	-5.6
CNC1=C(n2nnc3ccccc32)C(=O)c2ccccc2C1=O	-1.6	-2.9
Cc1nn(C)c(C)c1NC(=O)c1c([N+](=O)[O-])cnn1C	3.4	3.7
COc1ccc(C(=O)CSc2nc(C)cc(C)c2C#N)cc1	-6.0	-14.3
COC(=O)N1CCCC(NC(=O)Nc2cc(NC(C)=O)ccc2C)C1 (stereo unspecified)	-0.9	-6.1
CCC1COCCN1Cc1ccc(C(=O)Nc2c(C)cccc2OC)cc1 (stereo unspecified)	7.0	1.9
O=C(NC(c1ccccc1)c1ccsc1)C1CCN(C2Cc3ccccc3C2)CC1 (stereo unspecified)	0.3	-2.3
NC(=O)CSCC(=O)N1CCc2ccc(Cl)cc21	4.0	2.1
C=CCn1c(SC2CCOC2=O)nc2sc(C)c(C)c2c1=O (stereo unspecified)	-3.2	-4.2
CCn1ccnc1CN1CCC2(CCCN(C(=O)c3ccccc3C)C2)C1 (stereo unspecified)	5.9	10.6
CCCn1c(=O)c(C(=O)O)nn(-c2ccc(OC)c(OC)c2)c1=O	19.7	21.0
COCc1ccc(C(=O)Nc2nc(C(C)(C)C)cs2)cc1	-2.0	-3.5
COCCCn1c(SCc2nc3ccsc3c(=O)[nH]2)n[nH]c1=O	9.8	12.8
Cc1cccc(COC(=O)c2nnn(-c3ccc(Cl)cc3)c2C)c1	17.6	6.3
CNC(=O)c1cc(N2CC(C)OC(c3ccccc3)C2)ccn1 (stereo unspecified)	3.4	0.8
COc1ccc(CCN(C)C(=O)CCCCC2CCSS2)cc1OC (stereo unspecified)	-5.7	-11.9
CC1Cc2cc(-c3cc(COC(=O)c4cccs4)no3)ccc2O1 (stereo unspecified)	-0.8	-3.0
O=C(O)C1CN(C(=O)Cc2c(Cl)cccc2Cl)c2ccccc2O1 (stereo unspecified)	5.3	-0.6

# The final 2 records of the part above come first, to join the parts:
Molecule	NPYLR7 ag	NPYLR7 ag max-min
CC1Cc2cc(-c3cc(COC(=O)c4cccs4)no3)ccc2O1 (stereo unspecified)	-0.8	-3.0
O=C(O)C1CN(C(=O)Cc2c(Cl)cccc2Cl)c2ccccc2O1 (stereo unspecified)	5.3	-0.6
O=C1CCCCC1=CNc1ccc(S(=O)(=O)c2ccc(NC=C3CCCCC3=O)cc2)cc1	1.4	3.3
CCC(C)Oc1c(Cl)cc(-c2ncc[nH]2)cc1OC (stereo unspecified)	17.2	3.6
COc1ccc(Br)cc1COC(=O)c1ccccc1NS(C)(=O)=O	-5.5	-7.5
C#CCCC(=O)N(CC)Cc1cc(Cl)ccc1OC	-3.7	-9.5
Cc1ccccc1NC(=O)c1cc2cc(Br)ccc2oc1=N	-3.9	-10.9
CC(=O)c1c(C)[nH]c(C(=O)C(C)Sc2nnc(-c3ccc(Cl)cc3)n2C)c1C (stereo unspecified)	13.4	11.0
CCOC(=O)CCC(=O)N1CCN(c2nccc(-c3ccco3)n2)CC1	24.1	31.9
O=C(NCCC1CC2CCC1C2)c1ccccc1-n1cccn1 (stereo unspecified)	5.6	2.7
CN(CC(=O)N1CCC2(CCNCC2)CC1)Cc1ccncc1	3.6	1.7
CC1S/C(=C(/C#N)C(N)=O)N(c2ccccc2)C1=O (stereo unspecified)	-7.1	-10.5
CC1(C(=O)NS(=O)(=O)Cc2ccccc2)CCN1C(=O)c1ccc(C2CCCCC2)cc1 (stereo unspecified)	3.6	2.5
COc1ccc(/C=C2/N=C(c3cccc4ccccc34)OC2=O)cc1OC	-2.1	-8.2
CC(C)NC(=O)N(Cc1cc(N)ccc1N(C)C)C(C)C	-1.6	-5.4
CCOC(=O)c1c(NC(=O)c2c(Br)c(C)nn2CC)c(-c2ccc3c(c2)OCO3)cn1C	13.0	-3.3
O=C(O)C1CCC(N2C(=O)C3CCCCC3C2=O)CC1 (stereo unspecified)	7.8	4.3
O=C(c1ccccc1NCc1ccccn1)N1CCn2cncc2C1	4.1	1.0
CC(=O)c1nn(-c2cccc(C)c2)cc1C(=O)c1cccc(Br)c1	3.8	5.0
CCCC1CCC(=NNC(=O)OC(C)(C)C)CC1 (stereo unspecified)	5.3	3.7
O=C(NCCCN1CCOC(c2ccccc2)C1)C(=O)Nc1ccccc1Cl (stereo unspecified)	-8.9	-9.9
CC1CN(C(=O)CCN2CCc3sccc3C2c2cccc(F)c2)CCN1C(=O)C1C[C@H]1c1ccccc1 (stereo partly specified)	13.9	2.9

# (continued)
# Under each structure: NPYLR7 ag	NPYLR7 ag max-min
> COc1ccc(CCN(C)C(=O)CCl)cc1OC
 : -4.0	-6.0
> CN(C)CCC1CN(C(=O)C2CCC2)CCO1 (stereo unspecified)
 : 9.7	4.9
> O=C(OCC(=O)N1CCOCC1)c1ccccc1Cl
 : 2.2	0.6
> O=C(NCCc1ccc(Cl)cc1Cl)c1ccc(CSc2nc(Cl)cc(N3CCC4(CC3)OCCO4)n2)cc1
 : -10.8	-8.0
> NS(=O)(=O)c1ccc(NN=Cc2ccc3c(c2)OCO3)cc1
 : 0.6	-1.1
> NS(=O)(=O)c1ccc(N2CCC(c3ccc(Cl)cc3)=N2)cc1
 : -17.2&6.8	-18.2&2.7
> N#Cc1nncn1CN1CCN(S(=O)(=O)c2c(Cl)cc(Br)cc2Cl)CC1
 : 6.3	0.5
> COc1ccccc1OCCN1C(=O)C2(OCCCO2)c2cc(C)ccc21
 : -8.6	-8.0
> Cc1ccc(Cc2nnc(NC3CCCCC3)[nH]c2=O)cc1
 : 8.3	2.8
> O=C(O)C(Oc1ccc2ccc(=O)oc2c1)c1ccccc1 (stereo unspecified)
 : 0.8	-1.5
> Cc1sc(NC(=O)Cc2cccs2)nc1-c1ccc(F)cc1
 : -0.3	7.7
> CCn1nnc2c(=O)n(CC(=O)N3CCCCCC3)cnc21
 : 0.5	33.6
> CCc1ccc(NC(=S)NC2CC(C)(C)NC(C)(C)C2)cc1
 : 1.2	0.0
> Cn1nnnc1Sc1ncnc2scc(-c3ccc(Cl)cc3)c12
 : 2.2	0.6
> CCOC(=O)C1=C(CN(C)C2CCC(C)CC2)NC(=O)NC1c1ccccc1 (stereo unspecified)
 : 2.1	0.1
> COc1ccc(CCCNC(=O)NC2CCN3CCCCC23)cc1OC (stereo unspecified)
 : 8.2	6.4
> COc1ccccc1-c1cc(C(=O)NC(C)c2ccccc2)n2nc(-c3ccccc3)cc2n1 (stereo unspecified)
 : -4.5	2.2
> CCc1nc2c(OCC(N)=O)cccn2c1N(C)C(=O)c1cccc(OC)c1
 : 8.8	-4.8
> CCOc1ccc(NC(=O)N(CC)CC(=O)Nc2cc(C(C)(C)C)nn2-c2ccc(Cl)cc2)cc1
 : 19.3	15.8
> CC(=O)N1N=C(c2ccccc2Cl)OC1C(=O)N1CCCC1c1ccccn1 (stereo unspecified)
 : 7.7	4.3
> Cc1ccc[n+](C2=C(c3c(C(C)C)[nH]n(-c4ccc(Cl)c(Cl)c4)c3=O)C(=O)N(Cc3ccc(F)cc3)C2=O)c1
 : 7.7	12.4
> COc1nc2ccccc2cc1-c1cc(N)ccn1
 : -2.0	8.8
> CCCN(CC(=O)N(CCc1c[nH]c2ccccc12)Cc1ccccc1OC)C(=O)c1ccc(Cl)cc1Cl
 : 14.5	6.0
> CCN(CC)c1ccc(C2c3c([nH][nH]c3=O)CC(C)(O)C2C(=O)OCc2ccccc2)cc1 (stereo unspecified)
 : -3.6	-6.2
> CS(=O)(=O)c1ccc(C(=O)N(Cc2ccccn2)c2nc3c(F)cccc3s2)cc1
 : -0.2	-2.6
> Cc1nc(N2CCN(CCCO)CC2)nc(C)c1CC(C)C
 : 6.3	4.2
> COc1ccc(-c2nnc(NC(=O)C(N)Cc3ccccc3)s2)cc1 (stereo unspecified)
 : 2.8	-7.7
> Cc1cccnc1C(NC(=O)C1CCN(Cc2ccc(Cl)cc2)CC1)c1ccc(F)cc1 (stereo unspecified)
 : 5.5	7.7
> COc1ccc(N=C(c2cc([N+](=O)[O-])cc([N+](=O)[O-])c2)n2ccnc2)cc1
 : -14.8	-19.6
> CCCn1c(=O)c2c(nc3n2CCN3c2ccc(C)cc2)n(C)c1=O
 : -1.7	-3.6
> Nc1ccc(C(=O)NCC(=O)O)cc1
 : -8.3&0.8&-3.7	-17.4&-7.3&-5.4
> COc1ccc(N=Nc2c(C)[nH]n(-c3ccc([N+](=O)[O-])cc3)c2=O)c([N+](=O)[O-])c1
 : -2.5	-10.6
> C=CCN(C(=O)c1cccc(NCC(=O)O)c1)C1CCCC1
 : -6.3	-11.0
> O=C1CCCN1CCCC(=O)N1CC[C@@H](c2ccc3c(c2)OCO3)[C@H](O)C1
 : 4.2	2.8
> CCc1nc2ccc(C(=O)N3CCN(c4ccccc4)CC3)cn2c1N(CC)CC(=O)N(C)C
 : 17.9	15.8
> COC(=O)c1ccc(CN2CCCC(N3CCN(c4ccccc4C)CC3)C2)cc1 (stereo unspecified)
 : 5.1	4.4
> Cn1c(=O)c2c(ncn2CC(=O)NCCC2=CCCCC2)n(C)c1=O
 : 7.8	9.6
> CCN(Cc1cc2ccccc2o1)CC1CCOCC1
 : -0.1	-2.6
> Cc1ccnc(SCc2cc(=O)c(OC(=O)c3cccc(Br)c3)co2)n1
 : -10.2	-5.1
> CC1CN(C(=O)c2ccc(S(=O)(=O)N3CCCC3)cc2)CCO1 (stereo unspecified)
 : -10.6	-11.9
> Cc1cc(=O)c2c(C3CCCC3)nn(-c3ccccc3)c2[nH]1
 : 8.1	6.7
> CCCS(=O)(=O)NCc1nc(NCCCc2ccccc2)c2ccccc2n1
 : 18.7	6.7
> C=C(C)Cn1c(SCC)nc2c1c(=O)[nH]c(=O)n2C
 : -7.1	2.0
> NC(=O)c1cnc2n1CCN(C(=O)COCC1CCCCO1)C2 (stereo unspecified)
 : 12.7	7.5
> Cc1cccn2c(=O)c(C(=O)NC3CCCCC3C)c(O)nc12 (stereo unspecified)
 : -0.2	9.2
> O=C(Nc1cccc(Cl)c1)C(C1CCCC1)N1CCN(C(=O)C2CC2)CC1 (stereo unspecified)
 : -3.2	3.0
> COc1cccc(-c2cc(C(=O)N3CCN(c4cccc(Cl)c4)CC3)n3nc(C(C)(C)C)cc3n2)c1
 : -6.5&4.7	-1.1&27.2
> C=C(Br)CN(C)CCCNC(C)=O
 : 0.3	-1.4

# Given as labelled records: three of the compounds above.
> Nc1ccc(C(=O)NCC(=O)O)cc1
  NPYLR7 ag: -8.3&0.8&-3.7 | NPYLR7 ag max-min: -17.4&-7.3&-5.4

> Cn1c(=O)c2c(ncn2CC(=O)NCCC2=CCCCC2)n(C)c1=O
  NPYLR7 ag: 7.8 | NPYLR7 ag max-min: 9.6

> Cc1cc(=O)c2c(C3CCCC3)nn(-c3ccccc3)c2[nH]1
  NPYLR7 ag: 8.1 | NPYLR7 ag max-min: 6.7

# Only part of the results is shown, so the mix of outcomes need not match the whole.
